Screens: PubChem, ICCB-Longwood Screening Facility, Harvard Medical School
HCMV UL50-53 inh = inhibitors of HCMV UL50-UL53 interaction, biochemical, HTRF. 0.15% of 190,000 active. inhibition, % (concentration not given with the values). HCMV UL50-UL53 nuclear egress complex (human cytomegalovirus). AID 1918969, 2023. normalized percent inhibition;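 active = both replicates at 50% or more, plus weaker picks with an unusually low signal ratio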;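 also: stock transfer was 100 nL into about 20 µL; 0% = negative control wells and 100% = wells with untagged competitor protein; inactives centre near -12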
Sa growth inh = S. aureus growth inhibition at 42 and 30 °C, primary screen, LtaS inhibitor project, RN4220, two temperatures. relative growth, % (no concentration beside the values). OD600, 20 h, 42 °C; hits give low values. AID 720641, 2013. 0.53% of 170,000 active;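 active = growth at 42 °C up to 50% and 20 or more points under that at 30 °C, or under 10% at both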;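 also: 300 nL library stock went into each well; scaled to the means of positive and negative controls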
GIV Gai3 FP = inhibitors of GIV peptide binding to Galpha-i3, primary screen, biochemical, fluorescence polarization, FITC-GIV GBA peptide, rat Galphai3; Guanine nucleotide-binding protein G(i) subunit alpha-3 (Rattus norvegicus), P08753; 90 min; hits give low values; scaled: aluminum fluoride 0%, vehicle 100%; percent of control (FP), % (concentration not given with the values); 0.42% of 210,000 active; AID 1224905, 2016;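 active = replicate mean at 85% of control or lower, very high polarization wells dropped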;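 also: wells of about 15 µL received 100 nL stock; the first replicate is given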
Target sequence (P08753 whole entry, looked up): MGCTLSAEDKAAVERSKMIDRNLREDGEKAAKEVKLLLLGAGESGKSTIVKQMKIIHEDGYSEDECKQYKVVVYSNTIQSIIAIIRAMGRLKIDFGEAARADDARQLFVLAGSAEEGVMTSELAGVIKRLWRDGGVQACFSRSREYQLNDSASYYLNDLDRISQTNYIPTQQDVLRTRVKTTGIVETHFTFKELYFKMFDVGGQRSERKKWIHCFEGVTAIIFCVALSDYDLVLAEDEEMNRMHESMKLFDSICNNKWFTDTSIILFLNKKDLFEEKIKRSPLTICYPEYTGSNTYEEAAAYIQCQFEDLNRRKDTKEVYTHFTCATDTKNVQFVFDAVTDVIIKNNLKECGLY
Sa growth inh second temp = further read-out of Sa growth inh, marked with its call; relative growth, %; measured here: growth at 30 °C;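 optical density after 20 h as mean of two plates; 100% = untreated growth and lower means inhibition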
The depositor's hits bear a star; / = no result given.

SMILES	HCMV UL50-53 inh	Sa growth inh	Sa growth inh second temp	GIV Gai3 FP
COc1ccc(-n2cc(-c3ccccc3)c3c(NCCc4ccc(OC)c(OC)c4)ncnc32)cc1	/	108	92	102
COc1cccc2c1cc1c(=O)n(CC(=O)NC3CC3)nc(C)n12	-27	122	83	97
Cc1ccc(C)c(NC(=O)c2nccnc2COC(=O)c2cccc(F)c2)c1	/	99	87	105
Cc1ccc(-n2nc3c(=O)n(CC(=O)NCCC(C)C)nc(C)c3c2C)cc1	/	89	90	105
COc1ccccc1C(OC(=O)c1ccco1)C(=O)NCC1CCCO1 (stereo unspecified)	-16	107	84	100
CCCN(C(=O)c1cccs1)c1nc(-c2ccccc2)cs1	-7	49	52	100
Cc1ccc(-c2nc(-c3cccnc3)[nH]c2-c2ccccc2)cc1C	-29	/	/	99
COc1cc(C2NC(=O)NC(C)=C2C(=O)OC2CCCCCCC2)cc(Br)c1O (stereo unspecified)	-10	/	/	105
COc1cc(C)c(S(=O)(=O)N2CCc3cc4cc(C)ccc4nc32)cc1C	-13	/	/	108
CCOc1ccc(NCc2cccn2-c2nnc(N3CCC(C(=O)NCCc4ccc(OC)c(OC)c4)CC3)s2)cc1	-2	100	78	106
Cn1nc2c3c(cccc3c1=O)-c1ccccc1-2	-85	86	58	106
O=c1c(-c2ccccc2)c(O)cc(-c2ccc(F)cc2)n1-c1ccccc1	-1	79	85	97
CCCC(=O)N(c1ccccc1)C1CC(C)Nc2ccccc21 (stereo unspecified)	-7	74	82	101
CCc1nnc2sc(-c3cccs3)nn12	-40	120	89	109
COc1ccc(-n2cc(C(=O)NC3CCCCCCC3)nn2)cc1	-15	106	86	104
CCOc1cc(-c2cc(C)c3c(ccc4ccccc43)n2)ccc1O	/	90	86	96
COc1cccc(/C=C2/CCC/C(=C\c3cccc(OC)c3OC)C2=O)c1OC	/	87	54	103
Cc1ccc(S(=O)(=O)NC2CCSC2=O)cc1 (stereo unspecified)	-31	90	87	99
CC(C)N(Cc1ccccc1)C(=O)CN1C(=O)CSc2cc(S(=O)(=O)N3CCCC3)ccc21	/	86	95	106
CCOC(=O)C1=C(C)N=c2s/c(=C\c3cc(Br)c(OC)cc3OC)c(=O)n2C1c1cccs1 (stereo unspecified)	-30	/	/	147
Cc1ccc(S(=O)(=O)N2CCNCC2)cc1	-6	114	82	101
COc1ccc(OC2CCN(S(=O)(=O)c3ccccc3)CC2)cc1	-14	99	90	100
O=C(NC(=S)N1CCN(C(=O)c2ccco2)CC1)c1ccc(S(=O)(=O)N2CCOCC2)cc1	-24	65	84	/
c1ccc(Cn2cc3c(-c4ccccc4)nnc-3c3cc4c(cc32)OCO4)cc1	-14	/	/	120
CC(OC(=O)c1cccc(N(C)C)c1)C(=O)c1ccc(Cl)cc1 (stereo unspecified)	-23	78	83	/
CC(C(=O)OCC(=O)N1CCCC1)N1C(=O)c2ccccc2C1=O (stereo unspecified)	-21	81	88	/
Cc1nc2ccc(S(=O)(=O)NCC(=O)Nc3nccs3)cc2s1	5	111	93	103
O=C1c2cccnc2C(=O)N1Cc1ccc(S(=O)(=O)N2CCOc3ccccc3C2)cc1	-10	94	106	109
O=C(OCCCN1C(=O)c2cccc3c(N4CCCCC4)ccc(c23)C1=O)c1ccccc1[N+](=O)[O-]	-16	/	/	102
CCOC(=O)c1c(NC(=O)c2ccc(OC)c(OC)c2)sc(C(=O)Nc2ccc(C)cc2C)c1C	-1	/	/	107
Cc1ccc(-n2nc3c(N4CCC(C(=O)N5CCCC5)CC4)nnc(C)c3c2C)cc1	-17	96	99	115
COC(=O)c1c[nH]n2c(NC3CCCCC3)c(-c3cccs3)nc12	-47	97	88	98
Cc1cc2c(cc1C)N(Cc1ccccc1C)C(=O)C1CCCC1=N2 (stereo unspecified)	-14	/	/	105
O=C(NC1CCCC1)c1ccc2c(=O)n(Cc3ccccc3)c(SCc3ccccc3F)nc2c1	/	105	94	99
O=S(=O)(Cc1cccc(Cl)c1)c1nc(C(F)(F)F)cc(C(F)(F)F)n1	/	95	81	99
CCOc1cccc(C(=O)Nc2ccc(-c3nc4cc(C)cc(C)c4o3)cc2)c1	26	102	106	105
COc1ccc2cc3cc(C(=O)N4CCN(c5cccc(C(F)(F)F)c5)CC4)sc3nc2c1	0	86	90	110
O=C(NC1CCCCC1)C1CCN(C(=O)c2ccccc2)CC1	-12	91	85	105
S=c1nccc(-c2ccc3c(c2)CCO3)[nH]1	-111	60	73	101
N=C1/C(=C/c2ccc(OCCOc3ccccc3)c(Cl)c2)C(=O)N=C2SC=CN12	/	115	70	108
O=C(Nc1nc2ccccc2n1Cc1ccc(Cl)cc1)c1ccco1	-16	/	/	95
CNC(=O)Nc1nncnc1C(=O)O	-74	84	80	104
COc1ccc(NC(=O)CC(CC(=O)O)c2ccccc2)cc1 (stereo unspecified)	-2	98	94	98
Nc1cccc(OCc2ccccc2F)c1	-28	100	100	101
COc1ccc(NC(=O)Cn2c(-c3ccccc3F)nc3ccccc3c2=O)cc1OC	-29	/	/	99
O=C1c2cccnc2C(=O)N1CCc1ccc(S(=O)(=O)N2CCN(c3ccccc3F)CC2)cc1	-20	/	/	105
O=C(CN1CCN(Cc2ccccc2)CC1)N1CCCCCC1	-13	104	75	102
Cc1cc(NC(=O)CSCC(=O)O)n(C)n1	-14	94	99	107
CC(Sc1nncn1-c1ccccc1)C(N)=O (stereo unspecified)	-6	96	94	/
COc1ccccc1CNc1nc(-c2ccco2)nn1S(C)(=O)=O	-3	101	85	103
OC1CCN(C(=S)Nc2ccccc2)CC1	-3	112	103	106
COC(=O)COc1cc(NO)ccc1N=O	-77	107	96	/
Cc1cc(COC(=O)c2ccc(OCc3ccccc3)cc2)no1	-24	102	81	/
O=C1c2ccccc2C(=O)c2c(Nc3ccccc3Cl)ccc(Nc3ccccc3Cl)c21	-10	/	/	119
Cc1ccc(NC(=O)COC(=O)C2CCC2)cc1Cl	-16	97	84	/
O=C(Nc1ccncc1)c1c(O)c2ccccc2n(-c2ccccc2)c1=O	-24	/	/	102
Cc1cc(C)nc(NC(c2ccccc2F)c2c(NC(=O)c3ccccc3)sc(C)c2C)n1 (stereo unspecified)	-1	/	/	110
S=C(c1ccc(Cl)cc1)N1CCCCC1	/	92	84	103
COc1cc(/C=C2/SC(=Nc3ccccc3)NC2=O)ccc1OCC(=O)O	-65	/	/	105
COc1ccccc1C1C(C#N)=C2N=C(N)c3ccccc3N2C2=C1C(=O)CCC2 (stereo unspecified)	/	123	66	100
(more compounds)
SMILES	HCMV UL50-53 inh	Sa growth inh	Sa growth inh second temp	GIV Gai3 FP
CC1Cc2ccccc2N1C(=O)Cc1csc(NC(=O)Nc2ccc(Cl)cc2)n1 (stereo unspecified)	-4	/	/	105
N#CC(C#N)=Cc1c(-c2ccccc2)nc2ccccn12	-15	74	69	/
O=C(NCCCN1CCOCC1)c1ccc(CS(=O)(=O)c2c(Cl)cccc2Cl)o1	-5	135	91	98
CC(CNC(=O)c1ccc2c(c1)nc1n2CCOC1)c1ccccc1 (stereo unspecified)	/	75	89	107
O=C(O)c1cccc2cccc(S(=O)c3ccccc3)c12 (stereo unspecified)	-45	101	86	107
Cc1ccc(CNc2ncccc2-c2nc(C)no2)cc1	6	/	/	101
Cc1ccc(S(=O)(=O)N2CCN(CC(=O)N3CCCC3)CC2)c(C)c1	-5	69	89	/
C=CCC1N(c2ccccc2)C(=O)C2C(C(=O)O)C3C=CC21O3 (stereo unspecified)	16	121	108	104
COc1ccc(OCc2ncc(C(F)(F)F)cc2Cl)cc1	-2	93	93	101
COc1ccc(OC)c(CCNC(=O)c2cc3c(s2)-c2c(C)cccc2OC3)c1	-25	107	81	99
CCCc1cc(=O)[nH]c(-n2nc(C)cc2NC(=O)C2CC(=O)N(c3ccc(F)cc3)C2)n1 (stereo unspecified)	-4	/	/	95
Cc1ccc(NC(=O)CCc2c(C)nn(-c3ccc(N4CCCCC4)nn3)c2C)cc1F	/	96	97	103
CC1(C)Cc2ccccc2C(=NCCCCCC(=O)O)N1	-7	/	/	99
COC(=O)c1cnc2c(c(C)nn2C)c1OC	-1	102	84	108
COc1ccc(C2NC3=C(CCC3)C3(C#N)C(OC)(OC)N=C(N)C23C#N)cc1 (stereo unspecified)	-13	110	88	108
C=CCn1c(C)cc(C(=O)COC(=O)c2ccc3c(c2)NC(=O)CS3)c1C	-4	104	99	/
Cc1cc(C)nc(NS(=O)(=O)c2ccc(NC(=O)c3ccc(S(=O)(=O)N4CCOCC4)cc3)cc2)n1	-4	/	/	105
Cc1cccc(-c2noc(-c3cccnc3NCc3ccco3)n2)c1	-24	100	66	100
Cc1ccc2onc(CNC(=O)N3CCCCCC3)c2c1	0	90	95	101
CCN(C(=O)Cn1ncc2c(=O)oc3ccccc3c21)c1cc(OC)ccc1OC	4	/	/	86

Whole records as entered above. Order of values: HCMV UL50-53 inh | Sa growth inh | Sa growth inh second temp | GIV Gai3 FP
Shown for `C=CCC1N(c2ccccc2)C(=O)C2C(C(=O)O)C3C=CC21O3` (stereo unspecified) = 16 | 121 | 108 | 104
Shown for `Cc1ccc2onc(CNC(=O)N3CCCCCC3)c2c1` = 0 | 90 | 95 | 101

Given with values under each structure: 22 of the compounds above.
Order of results – HCMV UL50-53 inh	Sa growth inh	Sa growth inh second temp	GIV Gai3 FP
- COc1cc(/C=C2/SC(=Nc3ccccc3)NC2=O)ccc1OCC(=O)O
  -65	/	/	105
- COc1ccccc1C1C(C#N)=C2N=C(N)c3ccccc3N2C2=C1C(=O)CCC2 (stereo unspecified)
  /	123	66	100
- CC1Cc2ccccc2N1C(=O)Cc1csc(NC(=O)Nc2ccc(Cl)cc2)n1 (stereo unspecified)
  -4	/	/	105
- N#CC(C#N)=Cc1c(-c2ccccc2)nc2ccccn12
  -15	74	69	/
- O=C(NCCCN1CCOCC1)c1ccc(CS(=O)(=O)c2c(Cl)cccc2Cl)o1
  -5	135	91	98
- CC(CNC(=O)c1ccc2c(c1)nc1n2CCOC1)c1ccccc1 (stereo unspecified)
  /	75	89	107
- O=C(O)c1cccc2cccc(S(=O)c3ccccc3)c12 (stereo unspecified)
  -45	101	86	107
- Cc1ccc(CNc2ncccc2-c2nc(C)no2)cc1
  6	/	/	101
- Cc1ccc(S(=O)(=O)N2CCN(CC(=O)N3CCCC3)CC2)c(C)c1
  -5	69	89	/
- C=CCC1N(c2ccccc2)C(=O)C2C(C(=O)O)C3C=CC21O3 (stereo unspecified)
  16	121	108	104
- COc1ccc(OCc2ncc(C(F)(F)F)cc2Cl)cc1
  -2	93	93	101
- COc1ccc(OC)c(CCNC(=O)c2cc3c(s2)-c2c(C)cccc2OC3)c1
  -25	107	81	99
- CCCc1cc(=O)[nH]c(-n2nc(C)cc2NC(=O)C2CC(=O)N(c3ccc(F)cc3)C2)n1 (stereo unspecified)
  -4	/	/	95
- Cc1ccc(NC(=O)CCc2c(C)nn(-c3ccc(N4CCCCC4)nn3)c2C)cc1F
  /	96	97	103
- CC1(C)Cc2ccccc2C(=NCCCCCC(=O)O)N1
  -7	/	/	99
- COC(=O)c1cnc2c(c(C)nn2C)c1OC
  -1	102	84	108
- COc1ccc(C2NC3=C(CCC3)C3(C#N)C(OC)(OC)N=C(N)C23C#N)cc1 (stereo unspecified)
  -13	110	88	108
- C=CCn1c(C)cc(C(=O)COC(=O)c2ccc3c(c2)NC(=O)CS3)c1C
  -4	104	99	/
- Cc1cc(C)nc(NS(=O)(=O)c2ccc(NC(=O)c3ccc(S(=O)(=O)N4CCOCC4)cc3)cc2)n1
  -4	/	/	105
- Cc1cccc(-c2noc(-c3cccnc3NCc3ccco3)n2)c1
  -24	100	66	100
- Cc1ccc2onc(CNC(=O)N3CCCCCC3)c2c1
  0	90	95	101
- CCN(C(=O)Cn1ncc2c(=O)oc3ccccc3c21)c1cc(OC)ccc1OC
  4	/	/	86

Next part
SMILES	HCMV UL50-53 inh	Sa growth inh	Sa growth inh second temp	GIV Gai3 FP
CCOC(=O)c1ccc(NC(=O)Nc2c(C)nc3nc[nH]n3c2=O)cc1	-3	/	/	102
COc1ccccc1N1CCN(C(=O)CCc2nnc3c4cc(-c5ccccc5)nn4ccn23)CC1	-11	/	/	109
COc1ccc(C2CC(c3ccc(OC)c(OC)c3)=NN2C(=O)CCC(=O)O)cc1 (stereo unspecified)	-47	/	/	99
CSc1nnc(Cn2c(=O)sc3ccccc32)n1-c1ccccc1C	/	103	90	98
